GALR2 agonist – agonists of human galanin receptor 2 (GALR2); O43603; GALR2-expressing cells, agonist activation read-out; activation, %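 (tested at 5 µM)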; 140,000 tested, 0.48% active; AID 803;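 active = above mean plus 3 SD of all compounds, about 5% in these data, not always enough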;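 note: 0% = vehicle buffer wells and 100% = reference agonist at full effect; tested in CHO reporter cells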
Target sequence (O43603 whole entry, looked up): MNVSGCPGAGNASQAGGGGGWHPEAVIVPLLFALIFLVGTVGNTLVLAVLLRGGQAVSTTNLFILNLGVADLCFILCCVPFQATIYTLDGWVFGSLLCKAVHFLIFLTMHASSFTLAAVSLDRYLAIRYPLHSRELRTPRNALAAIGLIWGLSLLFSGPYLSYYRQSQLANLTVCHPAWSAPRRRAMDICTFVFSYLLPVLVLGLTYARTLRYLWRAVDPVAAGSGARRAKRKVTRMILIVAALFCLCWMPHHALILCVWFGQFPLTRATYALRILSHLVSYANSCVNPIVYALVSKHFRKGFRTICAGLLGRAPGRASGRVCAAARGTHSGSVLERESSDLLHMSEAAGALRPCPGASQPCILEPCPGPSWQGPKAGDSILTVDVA
HSV augment – HSV replication enhancement. HSV replication augmentation in cells, fold increase. maximum fold increase. 220,000 tested, 0.005% active. AID 1956;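 active = peak rise of 1.5-fold or more in the series; tested in PC3 cells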;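 note: first round at 10 µM; read as green reporter fluorescence; hits show the peak of a series up to 25 µM; 1 = signal of infected wells without compound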
INS promoter inh – TRM-6 insulin promoter activity inhibition; TRM-6 cells (human fetal islet line), insulin promoter-eGFP reporter, imaging; reporter expression induced with tamoxifen; inhibition, % at 2 µM; 130,000 tested, 0.9% active;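 active = inhibition above the mean plus 3 SD, with well images judged a real hit on visual review, cut at about 60% in these data, passing the limit was not always enough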
RGS16-Gao – modulates binding between human RGS16 and Galphao | O15492+P09471 | bead-based flow cytometry RGS16-Galphao binding, fluorescence; actives lie on both sides | binding response (% of control), % at 10 µM | 220,000 tested, 0.38% active;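 active = below 25% or above 175%, edge rows of some plates excepted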;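 note: Galphao activated by GDP with aluminum fluoride before binding; 100% = wells without compound and 0% = beads without RGS; some results beyond the cut were filed as inactive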
Target sequence (O15492 whole entry, looked up): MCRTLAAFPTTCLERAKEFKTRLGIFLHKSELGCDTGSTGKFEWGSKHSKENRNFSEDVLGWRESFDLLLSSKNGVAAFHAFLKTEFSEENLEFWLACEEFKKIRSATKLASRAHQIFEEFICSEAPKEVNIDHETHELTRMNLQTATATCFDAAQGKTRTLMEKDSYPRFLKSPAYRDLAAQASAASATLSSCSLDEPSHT
Target sequence (P09471 whole entry, looked up): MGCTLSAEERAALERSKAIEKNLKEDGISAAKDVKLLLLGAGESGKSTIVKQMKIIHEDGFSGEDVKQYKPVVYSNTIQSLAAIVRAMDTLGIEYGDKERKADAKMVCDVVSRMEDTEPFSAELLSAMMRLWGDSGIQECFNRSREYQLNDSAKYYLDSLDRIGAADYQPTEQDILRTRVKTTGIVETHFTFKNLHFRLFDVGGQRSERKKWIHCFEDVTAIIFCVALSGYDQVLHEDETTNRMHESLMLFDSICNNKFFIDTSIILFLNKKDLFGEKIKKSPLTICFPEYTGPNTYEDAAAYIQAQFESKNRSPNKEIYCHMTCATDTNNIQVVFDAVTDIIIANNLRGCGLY
PKD1 kinase inh – inhibitors of human PKD1 kinase | inhibition, %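 (about 10 µM by stock and volumes)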 | Q15139 | AID 797 | PKD1 kinase fluorescence polarization assay | 200,000 tested, 0.056% active;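 active = inhibition of 50% or more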;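 note: controls were vehicle for no effect and a reference inhibitor for full effect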
INS promoter inh cell count – also measured in INS promoter inh; calls as there; normalized cell count, %; measured here: cell count, toxicity; reference of the scale not given here;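 cells exposed to compound for 48 h; stained nuclei by imaging scaled within each plate; lower means fewer cells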
HSV augment primary fold – recorded beside HSV augment, whose call it bears; fold increase; compound at 10 µM; measured here: primary screen fold increase 10 uM; tested in PC3 cells;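 GFP signal in the first replicate; 1 = infected wells without compound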
Active calls of the source: *.

`CCOC(=O)c1c(C)[nH]c(C(=O)COC(=O)c2ccccc2NC(=O)c2ccco2)c1C` gave GALR2 agonist 0.0, HSV augment inactive, RGS16-Gao 95.9, PKD1 kinase inh -7.6 and HSV augment primary fold 0.92.
Screening NC(=O)c1ccc(NC(=O)COC(=O)C2(c3ccccc3F)CCCC2)cc1 returned HSV augment inactive, INS promoter inh 33.3, RGS16-Gao 108.8, PKD1 kinase inh 5.6, INS promoter inh cell count 136.4 and HSV augment primary fold 1.05.
For C=C1CSc2nc(=O)c3c4c(sc3n21)CCCC4 the results were GALR2 agonist 0.6, HSV augment inactive, RGS16-Gao 103.7, PKD1 kinase inh -0.7 and HSV augment primary fold 1.09.
`Cc1c(/C=N/NC(=O)COc2ccccc2[N+](=O)[O-])c2ccccc2n1C` gave GALR2 agonist 1.9, HSV augment inactive, INS promoter inh 10.7, RGS16-Gao 107.7, PKD1 kinase inh 0.1, INS promoter inh cell count 141.3 and HSV augment primary fold 0.66.
`CCC(=O)Nc1c(S(=O)(=O)c2ccccc2)c2nc3ccccc3nc2n1Cc1ccccc1` gave GALR2 agonist 2.1, HSV augment inactive, INS promoter inh -22.2, RGS16-Gao 13.9*, PKD1 kinase inh 1.8, INS promoter inh cell count 71.8 and HSV augment primary fold 0.98.
CC1(C#CC[N+]2(C)CCCCC2)CCC2C(O1)c1ccccc1OC2(C)C (centres undefined) was read as HSV augment inactive, INS promoter inh -12.5, RGS16-Gao 100.8, PKD1 kinase inh -2.8, INS promoter inh cell count 141.9 and HSV augment primary fold 0.97.
For CCOc1ccccc1OCCCOc1ccc(C)cc1Br the results were GALR2 agonist -3.9, RGS16-Gao 88.8 and PKD1 kinase inh 5.7.
For COc1cccc(-c2nc(S(=O)(=O)c3ccccc3)c(N3CCOCC3)o2)c1 the results were GALR2 agonist -0.5, HSV augment inactive, INS promoter inh -22.9, RGS16-Gao 93.6, PKD1 kinase inh -1.3, INS promoter inh cell count 94.6 and HSV augment primary fold 0.61.
COc1cc(SC)ccc1C(=O)NCCOc1c(C)cc(C)cc1C was read as GALR2 agonist -3.9, HSV augment inactive, INS promoter inh 3.5, RGS16-Gao 103.6, PKD1 kinase inh 2.0, INS promoter inh cell count 119.8 and HSV augment primary fold 0.99.
`CC(C)Cc1cc(C(=O)Nc2ccc(Br)cc2)no1` gave HSV augment inactive, RGS16-Gao 99.0 and HSV augment primary fold 0.94.
`Cc1nn(-c2ccc(Cl)nn2)c(=O)c2ccccc12` gave HSV augment inactive, RGS16-Gao 99.8, PKD1 kinase inh -4.8 and HSV augment primary fold 0.95.
`CCCCCc1cc(=O)oc2c(C(CCN3CCCCC3)c3ccc(OC)cc3)c(OC)cc(OC)c12` (centres undefined) gave HSV augment inactive, RGS16-Gao 94.0 and HSV augment primary fold 0.55.
O=c1c2ccccc2nc(-c2ccccc2Cl)n1O was read as HSV augment inactive, RGS16-Gao 101.1, PKD1 kinase inh -1.3 and HSV augment primary fold 0.99.
`CCOC(=O)C1CCN(C(=O)C2CCN(S(=O)(=O)c3c(C)noc3C)CC2)CC1` gave GALR2 agonist -2.4, HSV augment inactive, INS promoter inh 17.9, RGS16-Gao 99.4, PKD1 kinase inh 6.8, INS promoter inh cell count 88.8 and HSV augment primary fold 0.9.
O=C(CCCN1C(=O)c2ccccc2C1=O)NC1CCCCCC1 was read as GALR2 agonist -1.3, HSV augment inactive, INS promoter inh -32.4, RGS16-Gao 87.2, PKD1 kinase inh -4.1, INS promoter inh cell count 104.6 and HSV augment primary fold 0.91.
CC1(C)Nc2ccc(O)cc2-c2c1ssc2=S was read as GALR2 agonist -3.4, HSV augment inactive, INS promoter inh 5.5, RGS16-Gao 101.3, PKD1 kinase inh 5.7, INS promoter inh cell count 93.2 and HSV augment primary fold 0.8.
`NNC(=O)C(=O)Nc1ccc(O)cc1` gave HSV augment inactive, RGS16-Gao 105.5 and HSV augment primary fold 1.1.
Cc1nn(CC2CC2)c(=O)n1-c1ccc(F)cc1 was read as HSV augment inactive, RGS16-Gao 96.3, PKD1 kinase inh 3.0 and HSV augment primary fold 0.9.
For O=C(NCCN1CCOCC1)c1cccnc1SCc1ccccc1Cl the results were HSV augment inactive, INS promoter inh 7.1, RGS16-Gao 96.8, PKD1 kinase inh 2.2, INS promoter inh cell count 136.6 and HSV augment primary fold 0.93.
O=C1CC(c2ccccc2)CC(O)=C1C=NCCCN1CCOCC1 (centres undefined) was read as GALR2 agonist -2.0, HSV augment inactive, INS promoter inh 28.0, RGS16-Gao 108.3, PKD1 kinase inh -2.5, INS promoter inh cell count 58.7 and HSV augment primary fold 1.02.
For CC(=O)Nc1ccc(N/C=C2/CCCC2=O)cc1 the results were HSV augment inactive, RGS16-Gao 99.9 and HSV augment primary fold 0.84.
O=C(CSc1nc(-c2cccs2)cc(C(F)(F)F)n1)Nc1cc(OCC(F)(F)F)cc([N+](=O)[O-])c1 was read as GALR2 agonist 0.6, HSV augment inactive, INS promoter inh 33.3, RGS16-Gao 110.1, PKD1 kinase inh -5.4, INS promoter inh cell count 88.2 and HSV augment primary fold 0.86.
Screening O=C(Nc1ccc(Cl)cc1)Nc1ccc(N2CCC(C(F)(F)F)CC2)nc1 returned HSV augment inactive, RGS16-Gao 105.9 and HSV augment primary fold 1.
`Cc1cc(C(=O)N/N=C/c2cc(Cl)cc([N+](=O)[O-])c2O)n[nH]1` gave HSV augment inactive, RGS16-Gao 108.0 and HSV augment primary fold 1.04.
For Cc1ccc(/C(O)=C/c2nc3cc(C)ccc3oc2=O)cc1 the results were HSV augment inactive, RGS16-Gao 100.4 and HSV augment primary fold 0.98.
`Cc1occc1C(=O)Nc1cccc(C(=O)NCc2ccccc2)c1` gave GALR2 agonist -2.5, HSV augment inactive, INS promoter inh 41.4, RGS16-Gao 97.3, PKD1 kinase inh -10.6, INS promoter inh cell count 62.8 and HSV augment primary fold 0.74.
`CN1C(=O)COc2ccc(C(=O)c3oc4ccccc4c3-c3cnc4c(c3)COc3ccccc3-4)cc21` gave GALR2 agonist -1.3, HSV augment inactive, INS promoter inh 57.1, RGS16-Gao 101.9, PKD1 kinase inh -5.9, INS promoter inh cell count 124.1 and HSV augment primary fold 0.91.
Screening O=C(OCc1nc2ccccc2s1)[C@@H]1CCCN1S(=O)(=O)c1ccccc1F returned GALR2 agonist -1.2, HSV augment inactive, INS promoter inh 6.7, RGS16-Gao 103.2, PKD1 kinase inh -6.0, INS promoter inh cell count 81.1 and HSV augment primary fold 0.75.
`COc1cc2c(cc1OC)-c1nnc(-c3cccs3)n1C1(CCCC1)C2` gave GALR2 agonist -3.0, HSV augment inactive, INS promoter inh -40.5, RGS16-Gao 99.8, PKD1 kinase inh -6.0, INS promoter inh cell count 75.5 and HSV augment primary fold 1.1.
`CC1CC(=O)C(C2c3ccccc3CCN2C(=O)CCl)C(=O)C1` (centres undefined) gave GALR2 agonist 0.0, HSV augment inactive, INS promoter inh 0.0, RGS16-Gao 99.9, PKD1 kinase inh -10.9, INS promoter inh cell count 103.5 and HSV augment primary fold 1.12.
Screening Cn1c(N)c(C(=O)COC(=O)c2cccnc2Cl)c(=O)n(C)c1=O returned HSV augment inactive, INS promoter inh 7.1, RGS16-Gao 98.0, PKD1 kinase inh 0.4, INS promoter inh cell count 84.9 and HSV augment primary fold 1.13.
For Cc1ccc(NC(=O)c2cc3c(s2)CCCC3)cc1S(=O)(=O)Nc1ccccc1Cl the results were GALR2 agonist -0.2, HSV augment inactive, INS promoter inh 0.0, RGS16-Gao 99.6, PKD1 kinase inh -6.4, INS promoter inh cell count 112.1 and HSV augment primary fold 1.04.
For CC(=O)Nc1ccc(S(=O)(=O)Nc2nc3n(n2)C(c2ccccc2)CC(=O)N3)cc1 (centres undefined) the results were GALR2 agonist -1.3, HSV augment inactive, INS promoter inh -276.2, RGS16-Gao 96.7, PKD1 kinase inh 0.0, INS promoter inh cell count 38.3 and HSV augment primary fold 0.9.
`COc1cc(OC)nc(Oc2ccccc2C(=O)Oc2ccc(C)cc2)n1` gave GALR2 agonist -1.0, HSV augment inactive, INS promoter inh -13.5, RGS16-Gao 101.8, PKD1 kinase inh -13.6, INS promoter inh cell count 173.2 and HSV augment primary fold 0.74.
For Cc1c(S(=O)(=O)Nc2ccc3c(c2)OCCO3)c(=O)n(C)c(=O)n1C the results were GALR2 agonist -2.1, HSV augment inactive, RGS16-Gao 94.7, PKD1 kinase inh -21.8 and HSV augment primary fold 0.96.
O=C(CCc1nnc(-c2ccccc2)o1)NCc1cc(F)ccc1F was read as HSV augment inactive, RGS16-Gao 108.6, PKD1 kinase inh 0.9 and HSV augment primary fold 0.96.
`CCC(=O)Nc1nc2n(n1)C(c1ccc(OC)cc1)C=C(c1ccccc1)N2` (centres undefined) gave GALR2 agonist -1.1, HSV augment inactive, INS promoter inh 61.1, RGS16-Gao 99.9, PKD1 kinase inh -4.6, INS promoter inh cell count 61.7 and HSV augment primary fold 1.03.
CN1C(=O)N(C)C2(c3ccccc3)NC(=O)NC12c1ccccc1 (centres undefined) was read as GALR2 agonist -2.4, HSV augment inactive, RGS16-Gao 98.2, PKD1 kinase inh 1.6 and HSV augment primary fold 0.88.
`O=C(Cn1nnc(-c2ccc(S(=O)(=O)N3CCCC3)cc2)n1)Nc1ccccc1-n1cccc1` gave GALR2 agonist -1.2, HSV augment inactive, INS promoter inh 0.0, RGS16-Gao 103.8, PKD1 kinase inh -14.6, INS promoter inh cell count 113.4 and HSV augment primary fold 1.03.
Screening Cc1ccc(/C=N/NC(=O)CNC(=O)c2ccc(S(=O)(=O)N(C)C)cc2)cc1 returned HSV augment inactive, INS promoter inh -27.8, RGS16-Gao 90.7, PKD1 kinase inh -6.5, INS promoter inh cell count 58.3 and HSV augment primary fold 0.92.
Cc1cc(C)cc(NC(=O)N2CCCC2C(=O)NCc2ccco2)c1 (centres undefined) was read as HSV augment inactive, INS promoter inh -28.6, RGS16-Gao 104.0, PKD1 kinase inh -1.5, INS promoter inh cell count 84.2 and HSV augment primary fold 1.06.
CCn1c2ccccc2c2cc(NC(=O)COC(=O)c3cc(OC)c(OC)cc3OC)ccc21 was read as GALR2 agonist -1.1, HSV augment inactive, RGS16-Gao 98.1, PKD1 kinase inh 0.6 and HSV augment primary fold 0.79.
Screening COc1ccc2nc(NC(=O)c3cnccn3)sc2c1 returned GALR2 agonist 0.0, HSV augment inactive, INS promoter inh 33.3, RGS16-Gao 77.8, PKD1 kinase inh 10.5, INS promoter inh cell count 115.7 and HSV augment primary fold 0.79.
`O=S(=O)(c1ccccc1)N(CC1CO1)c1ccccc1` (centres undefined) gave HSV augment inactive, RGS16-Gao 110.0, PKD1 kinase inh -2.7 and HSV augment primary fold 1.01.
For O=C(Cn1cnc2c(cnn2-c2ccc(F)cc2)c1=O)OCc1ccccc1 the results were GALR2 agonist 0.0, HSV augment inactive, RGS16-Gao 103.4, PKD1 kinase inh -11.3 and HSV augment primary fold 1.
For Clc1cnc2nc(SC/C=C/c3ccccc3)[nH]c2c1 the results were HSV augment inactive, RGS16-Gao 101.3 and HSV augment primary fold 0.97.
For COc1ccc(N2CCN(c3nc(Nc4ccc(C)c(F)c4)nc(N4CCCC4)n3)CC2)cc1 the results were HSV augment inactive, INS promoter inh -3.7, RGS16-Gao 99.5, PKD1 kinase inh 8.0, INS promoter inh cell count 164.4 and HSV augment primary fold 1.03.
Screening Cn1cc([N+](=O)[O-])c(C(=O)Nc2nc(-c3ccc(Cl)cc3)cs2)n1 returned GALR2 agonist 3.2, HSV augment inactive, INS promoter inh 25.0, RGS16-Gao 96.0, PKD1 kinase inh 3.5, INS promoter inh cell count 16.4 and HSV augment primary fold 0.38.

Sorted by number of heavy atoms (largest number first): some entries from above
`CN1C(=O)COc2ccc(C(=O)c3oc4ccccc4c3-c3cnc4c(c3)COc3ccccc3-4)cc21` gave GALR2 agonist -1.3, HSV augment inactive, INS promoter inh 57.1, RGS16-Gao 101.9, PKD1 kinase inh -5.9, INS promoter inh cell count 124.1 and HSV augment primary fold 0.91.
For CC(=O)Nc1ccc(S(=O)(=O)Nc2nc3n(n2)C(c2ccccc2)CC(=O)N3)cc1 (centres undefined) the results were GALR2 agonist -1.3, HSV augment inactive, INS promoter inh -276.2, RGS16-Gao 96.7, PKD1 kinase inh 0.0, INS promoter inh cell count 38.3 and HSV augment primary fold 0.9.
For COc1cccc(-c2nc(S(=O)(=O)c3ccccc3)c(N3CCOCC3)o2)c1 the results were GALR2 agonist -0.5, HSV augment inactive, INS promoter inh -22.9, RGS16-Gao 93.6, PKD1 kinase inh -1.3, INS promoter inh cell count 94.6 and HSV augment primary fold 0.61.
O=C(CCCN1C(=O)c2ccccc2C1=O)NC1CCCCCC1 was read as GALR2 agonist -1.3, HSV augment inactive, INS promoter inh -32.4, RGS16-Gao 87.2, PKD1 kinase inh -4.1, INS promoter inh cell count 104.6 and HSV augment primary fold 0.91.
`NNC(=O)C(=O)Nc1ccc(O)cc1` gave HSV augment inactive, RGS16-Gao 105.5 and HSV augment primary fold 1.1.

High-throughput results deposited in PubChem BioAssay by several laboratories.
